Source: PubChem BioAssay
Env fusion inh = inhibitors of HIV Env-mediated cell fusion; HeLa-JRFL Env/CEM21 cell fusion, luciferase; inhibition, % at 12.3 µM; actives 1.1% (n = 360,000); AID 651610;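 active = mean replicate inhibition score of at least 50 and every replicate individually at or above 50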;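 also: 0% = plate neutral controls and 100% = maraviroc near 300 nM; one replicate is shown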
UUG fidelity = yeast start codon fidelity modulation; S. cerevisiae UUG-firefly luciferase reporter, luminescence/redox ratio; activity score, % at 18.7 µM; actives 0.13% (n = 350,000); AID 602363;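 active = replicate mean at a twofold rise or more, about +100% in these data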;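 also: firefly luciferase made from a UUG start codon reports start codon fidelity; reporter light over untreated wells divided by growth signal over untreated wells; some hits fall short of that in this replicate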
An asterisk follows results filed as active; [ ] = another dose, or the depositor's remark. This is a subset. The share of hits here may be higher or lower than overall.

A first look:
Every second line gives: Env fusion inh, UUG fidelity
C[C@H]1CN([C@@H](C)CO)C(=O)Cc2cc(NC(=O)NC3CCCCC3)ccc2O[C@H]1CN(C)CC1CCCCC1
 : -83[16.7 µM], 18
COc1ccc(NC(=O)N(C)C[C@@H]2Oc3ccc(NC(=O)C4CC4)cc3CC(=O)N([C@@H](C)CO)C[C@@H]2C)cc1
 : -8[16.7 µM], 3
O=C(Nc1ccc2c(c1)[C@@H]1C[C@H](CC(=O)N3CCOCC3)O[C@@H](CO)[C@@H]1O2)c1cccnc1
 : -1[16.7 µM], -10
C[C@H]1CN([C@@H](C)CO)C(=O)c2cccc(NS(C)(=O)=O)c2O[C@@H]1CN(C)Cc1ccc(C(F)(F)F)cc1
 : 22[16.7 µM], 2

The whole of this part, from the start:
Every second line gives: Env fusion inh, UUG fidelity
C[C@H]1CN([C@@H](C)CO)C(=O)Cc2cc(NC(=O)NC3CCCCC3)ccc2O[C@H]1CN(C)CC1CCCCC1
 : -83[16.7 µM], 18
COc1ccc(NC(=O)N(C)C[C@@H]2Oc3ccc(NC(=O)C4CC4)cc3CC(=O)N([C@@H](C)CO)C[C@@H]2C)cc1
 : -8[16.7 µM], 3
O=C(Nc1ccc2c(c1)[C@@H]1C[C@H](CC(=O)N3CCOCC3)O[C@@H](CO)[C@@H]1O2)c1cccnc1
 : -1[16.7 µM], -10
C[C@H]1CN([C@@H](C)CO)C(=O)c2cccc(NS(C)(=O)=O)c2O[C@@H]1CN(C)Cc1ccc(C(F)(F)F)cc1
 : 22[16.7 µM], 2
O=C(CN1CCOCC1)NCC[C@H]1CC[C@@H](NC(=O)Nc2ccccc2)[C@H](CO)O1
 : 0[16.7 µM], 1
CC(C)C(=O)Nc1ccc2c(c1)C(=O)N(C)[C@@H]1CC[C@H](CC(=O)O)O[C@H]1CO2
 : 10[16.7 µM], 1
CN(C)Cc1cn(CC[C@@H]2CC[C@H](NC(=O)Nc3ccc4c(c3)OCO4)[C@@H](CO)O2)nn1
 : -9[16.7 µM], -12
C[C@@H]1CCCCO[C@H](CN(C)S(=O)(=O)c2ccc(Cl)cc2)[C@@H](C)CN([C@@H](C)CO)C(=O)c2cc(NC(=O)c3ccccc3)ccc2O1
 : -3[16.7 µM], -10
O=C(NC1CCCCC1)N[C@@H]1CC[C@H](CC(=O)N2CCOCC2)O[C@@H]1CO
 : -10[16.7 µM], -13
Cc1noc(C)c1S(=O)(=O)N(C)C[C@H]1OCCCC[C@@H](C)Oc2ccc(NS(=O)(=O)c3cn(C)cn3)cc2C(=O)N([C@@H](C)CO)C[C@@H]1C
 : 8[16.7 µM], 23
C[C@H]1CCCCO[C@H](CN(C)C(=O)Nc2cccc3ccccc23)[C@@H](C)CN([C@@H](C)CO)C(=O)c2cc(NS(=O)(=O)c3cn(C)cn3)ccc2O1
 : -9[16.7 µM], 10
Cc1ccc(S(=O)(=O)Nc2cccc3c2O[C@H](CN(C)C(=O)Nc2c(C)noc2C)[C@@H](C)CN([C@@H](C)CO)C3=O)cc1
 : 15[16.7 µM], 1
COc1ccc(NC(=O)N[C@H]2CC[C@H](CCNS(=O)(=O)c3cccc(Cl)c3)O[C@@H]2CO)cc1
 : 0[16.7 µM], 3
C[C@H](CO)N1C[C@H](C)[C@@H](CN(C)CC2CCCCC2)Oc2c(NC(=O)Nc3ccc4c(c3)OCO4)cccc2C1=O
 : 3[16.7 µM], 2
C[C@@H]1CCCCO[C@@H](CN(C)Cc2ccc(Cl)c(Cl)c2)[C@H](C)CN([C@@H](C)CO)C(=O)c2cc(NS(C)(=O)=O)ccc2O1
 : -16[16.7 µM], 5
C/C=C/c1ccc2c(c1)O[C@H](CN(C)C(=O)NC(C)C)[C@@H](C)CN([C@H](C)CO)S2(=O)=O
 : 1[16.7 µM], 2
C[C@H]1CN([C@@H](C)CO)C(=O)c2cc(NC(=O)CCN3CCOCC3)ccc2O[C@H]1CN(C)S(=O)(=O)c1ccc(F)cc1
 : -19[16.7 µM], 5
COc1ccc(NC(=O)N(C)C[C@@H]2OCCCC[C@H](C)Oc3ccc(NC(=O)c4ccccc4)cc3C(=O)N([C@@H](C)CO)C[C@@H]2C)cc1
 : -32[16.7 µM], -2
CN(C)CC(=O)Nc1ccc2c(c1)[C@H]1C[C@@H](CC(=O)NCc3cccc(F)c3)O[C@H](CO)[C@H]1O2
 : 3[16.7 µM], 7
C[C@@H]1CN([C@H](C)CO)C(=O)c2cc(-c3ccncc3)cnc2O[C@@H]1CN(C)C(=O)c1ccc(F)cc1
 : -11[16.7 µM], -7
C[C@@H]1CCCCO[C@H](CN(C)Cc2ccc(C(F)(F)F)cc2)[C@@H](C)CN([C@@H](C)CO)C(=O)c2cc(NC(=O)C3CCCCC3)ccc2O1
 : 32[16.7 µM], 6
C[C@H]1CCCCO[C@H](CN(C)S(=O)(=O)c2ccc(F)cc2)[C@@H](C)CN([C@@H](C)CO)C(=O)c2cc(N(C)C)ccc2O1
 : -17[16.7 µM], -9
Cc1ccc(S(=O)(=O)Nc2ccc3c(c2)C(=O)N([C@H](C)CO)C[C@H](C)[C@@H](CN(C)S(C)(=O)=O)OCCCC[C@H](C)O3)cc1
 : -14[16.7 µM], 14
COc1ccc(S(=O)(=O)Nc2ccc3c(c2)C(=O)N([C@@H](C)CO)C[C@@H](C)[C@@H](CN(C)S(=O)(=O)c2ccccc2)O3)cc1
 : -30[16.7 µM], 14
C[C@@H]1CCCCO[C@H](CN(C)S(=O)(=O)c2ccc(F)cc2)[C@H](C)CN([C@@H](C)CO)C(=O)c2cc(NC(=O)CCCN(C)C)ccc2O1
 : -4[16.7 µM], 24
O=C(C[C@@H]1C=C[C@@H](NC(=O)Nc2ccccc2)[C@H](CO)O1)NCc1cccc(F)c1
 : 4[16.7 µM], -29
C[C@@H]1CCCCO[C@H](CN(C)S(=O)(=O)c2cccs2)[C@H](C)CN([C@@H](C)CO)C(=O)c2cc(NS(=O)(=O)c3ccc(Cl)cc3)ccc2O1
 : 2[16.7 µM], 14
C[C@@H]1CN([C@@H](C)CO)C(=O)c2cc(NC(=O)C3CC3)ccc2O[C@H]1CN(C)C(=O)NC1CCCCC1
 : -7[16.7 µM], -6
COc1ccccc1S(=O)(=O)Nc1ccc2c(c1)OC[C@H](C)NC[C@@H](C)[C@H](OC)CN(C)C2=O
 : -19[16.7 µM], -3
Cc1noc(C)c1NC(=O)Nc1ccc2c(c1)CC(=O)N([C@H](C)CO)C[C@@H](C)[C@H](CN(C)S(=O)(=O)c1cccs1)O2
 : -36[16.7 µM], 3
CN1C(=O)c2cc(NC(=O)c3cccs3)ccc2OC[C@H]2O[C@H](CC(=O)N3CCOCC3)CC[C@@H]21
 : -4[16.7 µM], -6
C[C@@H]1CN([C@H](C)CO)C(=O)c2cccc(NC(=O)Nc3cccc4ccccc34)c2O[C@H]1CN(C)C(=O)Nc1ccc2c(c1)OCO2
 : 9[16.7 µM], 1
C[C@H](CO)N1C[C@H](C)[C@H](CN(C)C(=O)Nc2ccc3c(c2)OCO3)Oc2cc(C#Cc3ccccc3)ccc2S1(=O)=O
 : 23[16.7 µM], -13
COc1ccc(NC(=O)N(C)C[C@@H]2Oc3c(NS(=O)(=O)c4cn(C)cn4)cccc3C(=O)N([C@@H](C)CO)C[C@@H]2C)cc1
 : 2[16.7 µM], -7
CCC(=O)N[C@H]1C=C[C@@H](CC(=O)NCc2ccccc2OC)O[C@H]1CO
 : -2[16.7 µM], -5
COc1cccc(C#Cc2cnc3c(c2)C(=O)N([C@@H](C)CO)C[C@@H](C)[C@H](CN(C)C(C)=O)O3)c1
 : 20[16.7 µM], 1
C[C@@H]1CN([C@@H](C)CO)C(=O)c2cc(NC(=O)C3CCCCC3)ccc2O[C@H]1CN(C)C(=O)Nc1ccc(F)cc1
 : 12[16.7 µM], -9
C[C@@H]1CN([C@H](C)CO)C(=O)c2cccc(NC(=O)NC3CCCCC3)c2O[C@H]1CN(C)Cc1ccc(Oc2ccccc2)cc1
 : 13[16.7 µM], -4
Cc1noc(C)c1NC(=O)N(C)C[C@@H]1Oc2ccc(NS(=O)(=O)c3ccc(Cl)cc3)cc2C(=O)N([C@H](C)CO)C[C@H]1C
 : -13[16.7 µM], -9
CC(=O)N(C)C[C@H]1Oc2cc(C#CCC(C)C)ccc2S(=O)(=O)N([C@@H](C)CO)C[C@@H]1C
 : -47[16.7 µM], 28
C[C@H](CO)N1C[C@H](C)[C@@H](CN(C)S(=O)(=O)c2cccs2)Oc2ccc(NC(=O)CCCCCC(=O)Nc3ccccc3N)cc2CC1=O
 : 11[16.7 µM], 2
COC(=O)C[C@@H]1CC[C@@H]2[C@@H](COc3ccc(NS(C)(=O)=O)cc3C(=O)N2C)O1
 : -3[16.7 µM], -30
CO[C@H]1CN(C)C(=O)c2cc(NS(=O)(=O)c3cccc(Cl)c3)ccc2OC[C@@H](C)NC[C@@H]1C
 : 2[16.7 µM], -10
C[C@@H]1CN([C@@H](C)CO)S(=O)(=O)c2ccc(C#CC3(O)CCCC3)cc2O[C@H]1CN(C)C(=O)Nc1ccccc1
 : -102[16.7 µM], -5
C[C@H]1CN([C@@H](C)CO)C(=O)c2cccc(NS(=O)(=O)c3ccc(F)cc3)c2O[C@H]1CN(C)C(=O)Nc1ccc2c(c1)OCO2
 : -31[16.7 µM], -3
CCCNC(=O)N(C)C[C@H]1Oc2cc(C#Cc3ccccn3)ccc2S(=O)(=O)N([C@H](C)CO)C[C@@H]1C
 : -26[16.7 µM], 2
Cc1ccc(S(=O)(=O)Nc2ccc3c(c2)C(=O)N([C@@H](C)CO)C[C@H](C)[C@@H](CN(C)C(=O)NC2CCCCC2)OCCCC[C@@H](C)O3)cc1
 : -64[16.7 µM], -1
Cc1ccc(S(=O)(=O)Nc2ccc3c(c2)C(=O)N([C@@H](C)CO)C[C@H](C)[C@@H](CN(C)Cc2ccc(C(=O)O)cc2)OCCCC[C@H](C)O3)cc1
 : -11[16.7 µM], 16
C[C@H]1CN([C@@H](C)CO)C(=O)Cc2cc(NC(=O)Cc3ccccc3)ccc2O[C@H]1CN(C)C(=O)Nc1ccccc1
 : 5[16.7 µM], 4
CO[C@@H]1CN(C)C(=O)c2cc(NC(C)=O)ccc2OC[C@H](C)N(C(=O)c2ccccc2)C[C@H]1C
 : 8[16.7 µM], 5

Further records.
Every second line gives: Env fusion inh, UUG fidelity
Cn1cnc(S(=O)(=O)N2C[C@H](O)COC[C@H]3O[C@H](CC(=O)NCc4cccc(F)c4)CC[C@@H]32)c1
 : -5[16.7 µM], -9
CO[C@@H]1CN(C)C(=O)c2ccc(NC(=O)Nc3ccc(Cl)cc3)cc2OC[C@@H](C)N(C)C[C@@H]1C
 : 5[16.7 µM], -2
C[C@@H]1CCCCO[C@@H](CN(C)C(=O)Nc2ccc3c(c2)OCO3)[C@@H](C)CN([C@@H](C)CO)C(=O)c2cc(NS(=O)(=O)c3ccccc3)ccc2O1
 : -13[16.7 µM], 8
CNC[C@H]1OCCCC[C@@H](C)Oc2ccc(NC(=O)c3ccncc3)cc2C(=O)N([C@H](C)CO)C[C@H]1C
 : 6[16.7 µM], 0
C[C@@H]1CCCCO[C@@H](CN(C)C(=O)CCCN(C)C)[C@@H](C)CN([C@H](C)CO)C(=O)c2cc(NC(=O)Cc3ccccc3)ccc2O1
 : 13[16.7 µM], 30
CNC[C@H]1Oc2ccc(NC(=O)Nc3ccc(C(F)(F)F)cc3)cc2C(=O)N([C@@H](C)CO)C[C@@H]1C
 : -5[16.7 µM], -6
C[C@H](CO)N1C[C@H](C)[C@H](CN(C)C(=O)CCCN(C)C)OCCCC[C@H](C)Oc2ccc(NC(=O)Nc3ccccc3)cc2C1=O
 : 4[16.7 µM], 11
COC(=O)[C@@]1(Cc2ccccc2CN=[N+]=[N-])COC(c2ccc(OCCCO)cc2)=N1
 : -19[16.7 µM], -7
O=C(Nc1ccccc1F)N[C@@H]1CC[C@@H](CCNS(=O)(=O)c2ccc(F)cc2)O[C@@H]1CO
 : -8[16.7 µM], -1
C[C@@H]1CN([C@H](C)CO)C(=O)Cc2cc(NC(=O)Nc3cccc4ccccc34)ccc2O[C@@H]1CN(C)Cc1ccccc1
 : -25[16.7 µM], 10
CC(C)C#Cc1ccc([C@@H]2[C@@H](CO)N(C(=O)C3CC3)[C@H]2C#N)cc1
 : -4[16.7 µM], 9
C[C@H](CO)N1C[C@H](C)[C@@H](CN(C)S(=O)(=O)c2cccs2)Oc2ccc(NC(=O)CCN3CCOCC3)cc2CC1=O
 : 10[16.7 µM], 14
Cc1ccc(-c2ccc3c(c2)O[C@H](CN(C)Cc2ccncc2)[C@@H](C)CN([C@@H](C)CO)S3(=O)=O)cc1
 : 91*[16.7 µM], -10
C[C@@H]1CN([C@@H](C)CO)C(=O)c2cc(NS(C)(=O)=O)ccc2O[C@H]1CN(C)S(=O)(=O)c1ccc(Cl)cc1
 : 18[16.7 µM], -7
C[C@@H]1CN([C@@H](C)CO)C(=O)c2cc(NC(=O)Cc3ccccc3)ccc2O[C@@H](C)CCCCO[C@@H]1CN(C)Cc1ccc(C(F)(F)F)cc1
 : 31[16.7 µM], 21
CN(C)CCCNC(=O)C[C@H]1CC[C@H](NS(=O)(=O)c2ccc(F)cc2)[C@H](CO)O1
 : -4[16.7 µM], -2
C[C@@H]1CN([C@@H](C)CO)C(=O)c2cc(C#CCC3CCCC3)cnc2O[C@@H]1CN(C)C(=O)CN(C)C
 : 1[16.7 µM], 125*
COc1ccc(NC(=O)N(C)C[C@@H]2Oc3ccc(NC(=O)CCCN(C)C)cc3CC(=O)N([C@H](C)CO)C[C@H]2C)cc1
 : 13[16.7 µM], 2

Ordered by length of the SMILES (rising): part of the list above.
Every second line gives: Env fusion inh, UUG fidelity
CC(C)C#Cc1ccc([C@@H]2[C@@H](CO)N(C(=O)C3CC3)[C@H]2C#N)cc1
 : -4[16.7 µM], 9
C[C@H](CO)N1C[C@H](C)[C@@H](CN(C)S(=O)(=O)c2cccs2)Oc2ccc(NC(=O)CCN3CCOCC3)cc2CC1=O
 : 10[16.7 µM], 14
C[C@@H]1CN([C@@H](C)CO)C(=O)c2cc(NC(=O)Cc3ccccc3)ccc2O[C@@H](C)CCCCO[C@@H]1CN(C)Cc1ccc(C(F)(F)F)cc1
 : 31[16.7 µM], 21
